Mtb H37Rv = M. tuberculosis H37Rv growth inhibitors, H37Rv strain (AID 1626); M. tuberculosis H37Rv growth inhibition; higher % means a stronger effect; inhibition, % at 10 µM, or IC50 in µM where a hit was titrated; actives 0.95% (n = 220,000);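 active = confirmed in a dose series; inconclusive = inhibition above 80% but not taken into the dose series; inactive = below 80% or under 30% at every dose of the series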;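 also: bacteria incubated seven days before Alamar blue readout; 0% = bacteria only wells and 100% = bacteria with antibiotic wells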
Arbovirus inh = arbovirus infection inhibition; arbovirus infection cell-based antiviral screen; inhibition, % at 10 µM; actives 0.37% (n = 200,000); AID 1251;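 active = inhibition from about 30%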;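 also: bluetongue infection of BSR cells; cell survival read as ATP light after 72 h; 0% = infected wells without compound and 100% = uninfected wells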
YopH inh = YopH (Yersinia) phosphatase inhibition. fluorescence Ex485/Em525. inhibition, %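 (about 10 µM by stock and volumes)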. actives 0.16% (n = 140,000). AID 898;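 active = inhibition of 50% or more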;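 also: controls were vehicle for no effect and minimum signal wells for full effect; inactives centre near -20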
Mtb bLac sens = beta-lactam sensitization of Mtb H37Rv; M. tuberculosis H37Rv growth with meropenem, percent inhibition; hits of this screen are not shown here; actives 0.27% (n = 330,000); inhibition, % at 25 µM;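 active = about 74% or more and at least 40 points above the plate without the antibiotic, then above 30% in a dose series; inconclusive = first-round hits that could not be retested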;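 also: growth measured after seven days incubation then overnight dye step; 0% = bacteria only wells and 100% = bacteria with antibiotic; twin plates without the antibiotic show which effects depend on it; some results filed as inactive read as strong as hits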
RecA intein inh = blocks M. tuberculosis RecA intein splicing. inhibition, %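 (about 9 µM by stock and volumes)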. actives 0.75% (n = 290,000). cell-free RecA intein splicing, fluorescence. P9WHJ3; in the data active = inhibition above about 30%; inconclusive = no clear call, values can overlap the other calls;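 also: 0% = vehicle wells and 100% = reference inhibitor control wells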
Target sequence (P9WHJ3 whole entry, looked up): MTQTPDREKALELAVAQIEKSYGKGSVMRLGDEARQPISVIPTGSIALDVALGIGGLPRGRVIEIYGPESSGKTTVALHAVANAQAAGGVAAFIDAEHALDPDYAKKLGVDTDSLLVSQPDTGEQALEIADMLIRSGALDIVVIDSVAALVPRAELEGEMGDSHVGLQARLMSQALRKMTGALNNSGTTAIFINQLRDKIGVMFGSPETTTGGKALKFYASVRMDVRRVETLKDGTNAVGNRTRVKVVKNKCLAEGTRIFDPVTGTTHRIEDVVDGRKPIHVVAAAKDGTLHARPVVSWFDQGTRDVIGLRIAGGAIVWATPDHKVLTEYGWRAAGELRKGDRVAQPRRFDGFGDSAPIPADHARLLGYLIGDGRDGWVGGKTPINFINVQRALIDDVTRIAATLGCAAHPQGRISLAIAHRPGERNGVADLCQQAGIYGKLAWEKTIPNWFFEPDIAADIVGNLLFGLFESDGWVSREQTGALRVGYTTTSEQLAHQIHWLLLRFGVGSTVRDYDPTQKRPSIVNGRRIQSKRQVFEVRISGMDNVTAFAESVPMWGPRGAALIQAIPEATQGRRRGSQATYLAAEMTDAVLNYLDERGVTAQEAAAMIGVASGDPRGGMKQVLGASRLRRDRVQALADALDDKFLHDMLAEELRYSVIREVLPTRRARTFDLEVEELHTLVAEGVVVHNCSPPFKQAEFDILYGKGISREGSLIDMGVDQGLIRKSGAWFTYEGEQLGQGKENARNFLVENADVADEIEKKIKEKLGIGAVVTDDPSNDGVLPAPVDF
Arbovirus inh repeat = recorded beside Arbovirus inh, whose call it bears; inhibition, %; measured here: 10K subset replicate screen; many hits read low in the repeat;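 first of two repeat runs on a subset; 0% = infected and 100% = uninfected wells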
Starred values were filed as active, the others as inactive.

What do the screens show for `CN1CCN(S(=O)(=O)c2ccc(Oc3ccc(F)cc3Br)nc2)CC1`?
Mtb H37Rv: 0%; Mtb bLac sens: -11; RecA intein inh: 3.1

What do the screens show for `O=C(Nc1cc(S(=O)(=O)N2CCOCC2)ccc1Cl)C1CCC1`?
Mtb bLac sens: -10; RecA intein inh: -0.7

What do the screens show for `Cc1nc2sc(C(N)=O)c(N)c2c(C)c1CC(=O)c1ccccc1`?
Arbovirus inh: 18; Mtb bLac sens: -6; RecA intein inh: 0.6

What do the screens show for `Cn1nccc1C(=O)N/N=C/c1ccccc1[N+](=O)[O-]`?
Mtb H37Rv: 2%; Mtb bLac sens: -6; RecA intein inh: 1.5

Results for Cc1ccc(Nc2nnc(-c3ccc(N4CCOCC4)c([N+](=O)[O-])c3)c3ccccc23)cc1 ?
Mtb H37Rv: 8%; Arbovirus inh: -12; YopH inh: -17; Mtb bLac sens: 9; RecA intein inh: 8.3

How did CCOC(=O)CSc1nnc(NCC(=O)OC(C)C)c(=O)[nH]1 do in these assays?
Mtb H37Rv: -4%; Arbovirus inh: 5; YopH inh: -35; Mtb bLac sens: 24; RecA intein inh: 55*

Results for COC(=O)C1=NN(C(=O)c2cccc(Cl)c2)C(O)(C(C)(C)C)C1 (centres undefined) ?
Mtb H37Rv: -3%; Arbovirus inh: -1; YopH inh: -51; Mtb bLac sens: -1

How did C=CCn1c(N2CCCC2)nc2c1c(=O)n(C)c(=O)n2C do in these assays?
Mtb bLac sens: 3; RecA intein inh: -0.1

Results for CC(=O)NCCc1ccc(C(=O)Cn2cnc3ccccc3c2=O)cc1 ?
Mtb bLac sens: -2; RecA intein inh: -2.4

How did O=C(Nc1nncs1)c1cccc(S(=O)(=O)N2CCCCC2)c1 do in these assays?
Mtb H37Rv: 0%; Arbovirus inh: 0; YopH inh: -32; Mtb bLac sens: 2; RecA intein inh: 3.8

How did CC(C)=CCc1c(O)ccc2c1OC(c1ccc(O)c(O)c1)CC2=O (centres undefined) do in these assays?
Mtb H37Rv: -3%; Arbovirus inh: 8; Mtb bLac sens: -2; RecA intein inh: 9.9

Results for CCCOP(=O)(c1ccc(N(C)C)cc1)C(O)c1ccncc1 (centres undefined) ?
Mtb H37Rv: -9%; Arbovirus inh: 7; YopH inh: -35; Mtb bLac sens: -2; RecA intein inh: 2.3

Results for COC(=O)c1ccc(NC(CC(C)C)C(=O)OC)c([N+](=O)[O-])c1 (centres undefined) ?
Mtb H37Rv: 1%; Arbovirus inh: 7; YopH inh: -5; Mtb bLac sens: 0; RecA intein inh: -1.4

Results for O=C(C1CCCN(C2CC(=O)N(c3ccc(F)cc3)C2=O)C1)N1CCCC1 (centres undefined) ?
Mtb bLac sens: -1; RecA intein inh: -1.8

What do the screens show for `CCCC(=O)N/C(N)=N/c1nc2ccccc2o1`?
Mtb H37Rv: 1%; Mtb bLac sens: 10

How did CC(C)(C)OC(=O)N1CCC(c2c(C(=O)NC3CC3)cnn2-c2ccc(Cl)cc2)CC1 do in these assays?
Mtb bLac sens: -1; RecA intein inh: 3.2

How did CC(=O)Nc1ccc(NC(=O)CSc2nnc(-c3cccs3)n2N)cc1 do in these assays?
Mtb bLac sens: 0; RecA intein inh: -2.3

How did COc1ccc(S(=O)(=O)N(CC(=O)Nc2ccc3c(c2)OCO3)c2ccccc2OC)cc1 do in these assays?
Mtb H37Rv: -18%; Arbovirus inh: -8; YopH inh: -38; Mtb bLac sens: -9; RecA intein inh: 6.5; Arbovirus inh repeat: -10

How did CC1=C(C(=O)OCC2CCCO2)C(c2ccc(C)cc2)C2=C(CC(C)(C)CC2=O)N1 (centres undefined) do in these assays?
Mtb H37Rv: 7%; Arbovirus inh: -2; Mtb bLac sens: 2; RecA intein inh: -44

Results for CN(c1ccccc1)S(=O)(=O)c1ccc(Cl)c(C(=O)Nc2nn[nH]n2)c1 ?
Mtb H37Rv: 0%; Arbovirus inh: 8; Mtb bLac sens: 0; RecA intein inh: -3.8

Nothing new here: entries from further up.
Results for COC(=O)c1ccc(NC(CC(C)C)C(=O)OC)c([N+](=O)[O-])c1 (centres undefined) ?
Mtb H37Rv: 1%; Arbovirus inh: 7; YopH inh: -5; Mtb bLac sens: 0; RecA intein inh: -1.4

Results for O=C(C1CCCN(C2CC(=O)N(c3ccc(F)cc3)C2=O)C1)N1CCCC1 (centres undefined) ?
Mtb bLac sens: -1; RecA intein inh: -1.8

What do the screens show for `CCCC(=O)N/C(N)=N/c1nc2ccccc2o1`?
Mtb H37Rv: 1%; Mtb bLac sens: 10

How did CC(C)(C)OC(=O)N1CCC(c2c(C(=O)NC3CC3)cnn2-c2ccc(Cl)cc2)CC1 do in these assays?
Mtb bLac sens: -1; RecA intein inh: 3.2

How did CC(=O)Nc1ccc(NC(=O)CSc2nnc(-c3cccs3)n2N)cc1 do in these assays?
Mtb bLac sens: 0; RecA intein inh: -2.3

How did COc1ccc(S(=O)(=O)N(CC(=O)Nc2ccc3c(c2)OCO3)c2ccccc2OC)cc1 do in these assays?
Mtb H37Rv: -18%; Arbovirus inh: -8; YopH inh: -38; Mtb bLac sens: -9; RecA intein inh: 6.5; Arbovirus inh repeat: -10

How did CC1=C(C(=O)OCC2CCCO2)C(c2ccc(C)cc2)C2=C(CC(C)(C)CC2=O)N1 (centres undefined) do in these assays?
Mtb H37Rv: 7%; Arbovirus inh: -2; Mtb bLac sens: 2; RecA intein inh: -44

Results for CN(c1ccccc1)S(=O)(=O)c1ccc(Cl)c(C(=O)Nc2nn[nH]n2)c1 ?
Mtb H37Rv: 0%; Arbovirus inh: 8; Mtb bLac sens: 0; RecA intein inh: -3.8

Next section
Results for O=C(O)C1C2C=CC(C2)C1C(=O)NCc1ccccc1F (centres undefined) ?
Mtb bLac sens: -2; RecA intein inh: 1.3

Results for COCc1nnc(NC(=O)c2cccc(NC(=O)C(C)C)c2)s1 ?
Mtb H37Rv: -5%; Arbovirus inh: 5; Mtb bLac sens: -4; RecA intein inh: -1.5

How did COc1ccccc1N=C1NC(=O)/C(=C/c2ccc(N(C)C)cc2)S1 do in these assays?
Mtb bLac sens: 6; RecA intein inh: -5.0

What do the screens show for `Nc1c(/C=C2/C=CC(=O)C(O)=C2)c(=O)nc2sc(CC(=O)N3CCCCC3)nn12`?
Mtb bLac sens: -7; RecA intein inh: -5.7

Results for CCOc1cc(-c2c(C#N)c(=O)[nH]c3c2c(C)nn3-c2ccc(F)cc2)ccc1O ?
Mtb H37Rv: 5%; Arbovirus inh: 14; YopH inh: -26; Mtb bLac sens: 99; RecA intein inh: -0.6

How did CCS(=O)(=O)N1CCCC(C(=O)NCCCOC)C1 (centres undefined) do in these assays?
Mtb H37Rv: 4%; Arbovirus inh: 6; YopH inh: -17; Mtb bLac sens: -6; RecA intein inh: 1.6

Results for O=C(CN1C(=O)NC2(CCCc3ccccc32)C1=O)NC1CCCCC1 (centres undefined) ?
Mtb bLac sens: -15; RecA intein inh: -2.5

Results for CCCCOC(=O)Nc1ccc2c(C)cc(=O)oc2c1 ?
Mtb H37Rv: -9%; Arbovirus inh: -10; YopH inh: 28; Mtb bLac sens: -9; RecA intein inh: 0.2

Results for Cc1cccc(C)c1NC(=O)CSc1nnc(-c2ccco2)c(-c2ccco2)n1 ?
Mtb H37Rv: 1%; Arbovirus inh: 7; YopH inh: 10; Mtb bLac sens: 8; RecA intein inh: 14

What do the screens show for `Cc1onc(-c2c(Cl)cccc2Cl)c1C(=O)NCc1ccccn1`?
Mtb H37Rv: 5%; Arbovirus inh: -4; YopH inh: -20; Mtb bLac sens: -3; RecA intein inh: 4.2

What do the screens show for `O=C1CC(NNC(=O)c2ccccc2)C(=O)N1` (centres undefined)?
Mtb H37Rv: -3%; Arbovirus inh: -2; YopH inh: -5; Mtb bLac sens: -3; RecA intein inh: -0.6

Results for O=C(Nc1cc(S(=O)(=O)N2CCOCC2)ccc1N1CCCC1)c1cccnc1Cl ?
Mtb H37Rv: -4%; Mtb bLac sens: 5; RecA intein inh: -2.2

How did Cc1cc(N2C(=O)C(O)=C(C(=O)c3cc4ccccc4o3)C2c2cccs2)no1 (centres undefined) do in these assays?
Mtb bLac sens: 3; RecA intein inh: -2.1

Results for CCOC(=O)C1(CC2CCCCO2)CCN(Cc2cn[nH]c2-c2cccc(F)c2)CC1 (centres undefined) ?
Mtb H37Rv: -2%; Arbovirus inh: 18; Mtb bLac sens: -8; RecA intein inh: 1.5

How did O=c1[nH]c(-c2ccc(Cl)cc2)nc(=S)[nH]1 do in these assays?
Mtb H37Rv: -10%; Mtb bLac sens: -7; RecA intein inh: -0.2

Results for COc1ccc(CCNC(=O)C(=O)c2cn(CC(=O)N3CCOCC3)c3ccccc23)cc1 ?
Mtb bLac sens: -4; RecA intein inh: 4.6

How did C=CCn1c(O)c(/C=N/NC(=O)c2ccncc2)c(=O)[nH]c1=O do in these assays?
Mtb H37Rv: inconclusive; Mtb bLac sens: 99; RecA intein inh: -1.7

What do the screens show for `Cc1nn(Cc2ccccc2)c2sc(C(=O)NCc3cccnc3)cc12`?
Mtb H37Rv: -8%; Arbovirus inh: 5; YopH inh: -8; Mtb bLac sens: 16

How did Cc1c(C)c2cc(Cl)c(OCC(=O)N3C[C@H]4C[C@@H](C3)c3cccc(=O)n3C4)cc2oc1=O do in these assays?
Mtb bLac sens: -4; RecA intein inh: 17

Results for CC(C)C(NC(=O)c1ccc(C(C)(C)C)cc1)C(=O)OCC(=O)NC(=O)Cc1ccccc1 (centres undefined) ?
Mtb H37Rv: 12%; Arbovirus inh: -1; YopH inh: -4; Mtb bLac sens: 2; RecA intein inh: -4.7

What do the screens show for `Cc1ccc(OCC(O)CN2CCOCC2)cc1` (centres undefined)?
Mtb bLac sens: -4; RecA intein inh: 0.0

How did CN(C)CCN1C(=O)c2oc3ccc(F)cc3c(=O)c2C1c1ccncc1 (centres undefined) do in these assays?
Mtb H37Rv: -2%; Arbovirus inh: 18; YopH inh: -44; Mtb bLac sens: -5; RecA intein inh: 1.9

What do the screens show for `CC(C)c1ccc(NC(=S)NCc2ccc3c(c2)OCO3)cc1`?
Mtb H37Rv: 11%; Arbovirus inh: -7; Mtb bLac sens: 8; RecA intein inh: 9.1

Results for Cc1cccc(OCC(=O)NCC(=O)N/N=C/c2c(C)[nH]c3ccccc23)c1 ?
Mtb H37Rv: 7%; Mtb bLac sens: -1; RecA intein inh: 0.7

How did CC(C)(C)c1nnc(NC(=O)CN2C(=O)C3C4C=CC(C4)C3C2=O)s1 (centres undefined) do in these assays?
Mtb H37Rv: -2%; Arbovirus inh: 6; YopH inh: -18; Mtb bLac sens: -4; RecA intein inh: -1.2

What do the screens show for `CCN(c1cccc(C(F)(F)F)c1)S(=O)(=O)c1ccc2c(c1)CCN2C(=O)C1CC1`?
Mtb H37Rv: -1%; Arbovirus inh: 14; YopH inh: 10; Mtb bLac sens: -10; RecA intein inh: 3.2

Results for CSCc1nnc2n1-c1ccc(Cl)cc1C(c1ccccc1)=NC2 ?
Mtb H37Rv: -10%; Arbovirus inh: -10; YopH inh: -17; Mtb bLac sens: -4; RecA intein inh: 3.2

Results for CN(C(=O)COC(=O)/C=C/c1ccc(C(F)(F)F)cc1)c1c(N)n(Cc2ccccc2)c(=O)[nH]c1=O ?
Mtb bLac sens: -4; RecA intein inh: -4.0

How did Nc1nc(-c2cccs2)c(-c2cccs2)s1 do in these assays?
Mtb bLac sens: 2; RecA intein inh: 16

Results for COc1ccccc1NC(=O)Cc1c(F)cccc1Cl ?
Mtb H37Rv: 4%; Arbovirus inh: -6; YopH inh: -6; Mtb bLac sens: -1; RecA intein inh: 3.6

Results for S=c1[nH]nc(-c2ccco2)n1/N=C/c1cccs1 ?
Mtb H37Rv: -3%; Arbovirus inh: 4; YopH inh: -31; Mtb bLac sens: -2; RecA intein inh: 4.1

Results for C(#CCN1CCC(Cc2ccccc2)CC1)COCCOCc1ccccc1 ?
Mtb H37Rv: 16%; Arbovirus inh: -1; YopH inh: 14; Mtb bLac sens: -2; RecA intein inh: 2.8

How did Cc1cc2c(cc1S(=O)(=O)N1CCN(c3cccc(C)c3C)CC1)OCC(=O)N2 do in these assays?
Mtb bLac sens: 3; RecA intein inh: 0.1

What do the screens show for `CCC(=O)Nc1nnc(CSCc2ccccc2)s1`?
Mtb H37Rv: 15%; Arbovirus inh: 12; YopH inh: -34; Mtb bLac sens: -11; RecA intein inh: -3.5

How did COc1ccc(-n2c(C)cc(C(=O)CSc3ccc(NC(C)=O)cc3)c2C)cc1 do in these assays?
Mtb H37Rv: 1%; Arbovirus inh: -20; YopH inh: -22; Mtb bLac sens: 7; RecA intein inh: 11

Results for COC(=O)C(CC(=O)c1ccc(Cl)cc1)c1ccc(C)cc1 (centres undefined) ?
Mtb H37Rv: -2%; Arbovirus inh: -8; YopH inh: -19; Mtb bLac sens: 4; RecA intein inh: -0.4

Only part of the results is shown; count on the stated rates, not on these rows.
